Assay outcomes: PubChem BioAssay, several laboratories
PABP FP inh: PABP poly(A) RNA binding inhibitors, primary screen, biochemical, fluorescence polarization, uHTS; Polyadenylate-binding protein 1 (Homo sapiens), P11940; inhibition, % at 35 µM; 1% of 290,000 active;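 active = 50% or more with normal probe brightness, or confirmed in later tests; inconclusive = above 50% with abnormal brightness, or retests that disagree; inactive = below 50% or failed in later tests; about a fifth of its hits are not listed in these tables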;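 note: calls also rest on retests at 20 µM and on dose response follow-up; controls were probe without protein and protein plus probe with vehicle; some compounds called inactive have numbers as strong as hits; many hits fall short of the cut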
Rce1 inh: yeast Rce1p protease inhibitors, primary screen, biochemical, fluorescence, cell-free homogeneous. CAAX prenyl protease 2 (Saccharomyces cerevisiae (strain ATCC 204508 / S288c)), Q03530. yeast membranes, quenched prenylated peptide cleavage fluorescence. calls only. 0.27% of 290,000 active. AID 2563, 2010;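 active = fall in fluorescence gain of 50% or more versus controls, with final raw signal at or below 3038400; inconclusive = same 50% fall but final raw signal above 3038400; inactive = fall in fluorescence gain under 50%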;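 note: plate controls were neutral control wells for no effect and wells lacking membranes for full effect; tested at 10 µM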
Target sequence (Q03530 whole entry, looked up): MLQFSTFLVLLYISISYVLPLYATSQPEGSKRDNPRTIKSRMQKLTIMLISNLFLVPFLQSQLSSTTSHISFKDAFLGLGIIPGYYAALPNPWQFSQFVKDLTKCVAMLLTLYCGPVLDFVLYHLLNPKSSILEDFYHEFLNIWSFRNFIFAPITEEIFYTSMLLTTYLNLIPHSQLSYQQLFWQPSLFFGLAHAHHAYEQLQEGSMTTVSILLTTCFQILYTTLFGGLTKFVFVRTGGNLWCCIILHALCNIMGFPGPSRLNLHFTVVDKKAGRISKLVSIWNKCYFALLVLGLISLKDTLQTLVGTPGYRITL
CSC inhib: cancer stem cell viability inhibitors, primary screen, luminescence; inhibition, % at 7.5 µM; 1.1% of 300,000 active; AID 2717, 2010; cancer stem cell-like cells viability;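 active = mean at 75% or more and at least half the replicates too; inconclusive = mean and replicates disagree; tested in HMLE shEcad cells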;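 note: 0% = median of negative and 100% = median of positive control wells; the first replicate is given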
HIV Env fusion: inhibitors of HIV-1 Env-driven cell-cell fusion, primary screen, HeLa-JRFL effector, CEM21 target cells, luciferase; inhibition, % at 12.3 µM; 1.1% of 360,000 active; AID 651610, 2012;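 active = mean replicate inhibition score of at least 50 and every replicate individually at or above 50; inconclusive = only one of the two criteria met; inactive = mean below 50 and not all replicates reaching 50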;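 note: 0% = plate neutral controls and 100% = maraviroc near 300 nM; one replicate is shown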
eIF4H inh: human eIF4H binding inhibitors, primary screen, translation initiation inhibitor project, biochemical, uHTS, fluorescence polarization; Eukaryotic translation initiation factor 4H (Homo sapiens), Q15056; eIF4H fluorescence polarization binding assay; inhibition, % at 35 µM; 0.94% of 290,000 active;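 active = 50% or more with normal probe brightness, or confirmed in later tests; inconclusive = above 50% with abnormal brightness, or retests that disagree; inactive = below 50% or failed in later tests; about a fifth of its hits are not listed in these tables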;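 note: calls also rest on retests at 20 µM and on dose response follow-up; 0% = protein and probe with vehicle and 100% = probe without protein; strong numbers were not always called active; many hits fall short of the cut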
Yeast UUG start: modulators of yeast start codon fidelity, primary screen, whole organism, S. cerevisiae, single point, plate reader; S. cerevisiae UUG-firefly luciferase reporter, luminescence/redox ratio; activity score, % at 18.7 µM; 0.13% of 350,000 active; AID 602363, 2012;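 active = replicate mean at a twofold rise or more, about +100% in these data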;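 note: firefly luciferase made from a UUG start codon reports start codon fidelity; reporter light over untreated wells divided by growth signal over untreated wells; some hits fall short of that in this replicate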
MT1-MMP act inh: blockers of MT1-MMP proenzyme processing, primary screen, HT1080 RFP-PRO-GFP cells, GFP/RFP fluorescence; Matrix metalloproteinase-14 (Homo sapiens), P50281; AID 651647, 2012; GFP/RFP ratio fluorescence, overnight; percent of plate control window, DMSO zero; GFP/RFP ratio change, % at 20 µM; 0.061% of 360,000 active;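 active = GFP/RFP ratio change of at least 30% with cell ATP level not reduced by more than half and red fluorescence within 50% of control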; note: strong numbers were not always called active
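Assay system: RFP-PRO-GFP reporter HT1080 cells; read-out basis: GFP/RFP fluorescence ratio; benchmarks: DMSO wells and RFP-L50D-GFP cells; doses: 20 µM single dose, 1% DMSO; schedule: overnight cell settling, then overnight compound exposure, 37 °C, 5% CO2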
eIF4H inh retest: second read-out of eIF4H inh, no call of its own (marks repeat the call); inhibition, %; compound at 20 µM; confirmation average;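 mean of two retest wells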
PABP FP inh retest: also measured in PABP FP inh; calls as there; inhibition, %; compound at 20 µM; confirmation repeats;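 mean of two retest wells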
MT1-MMP act inh RFP: recorded beside MT1-MMP act inh, whose call it bears; RFP signal change, %; measured here: RFP expression control read;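 0 = vehicle wells; hits needed this value within 50% of zero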
An asterisk follows results filed as active; i = inactive; ? = inconclusive; . = not tested or not shown; & = joins results of further samples.

SMILES	PABP FP inh	Rce1 inh	CSC inhib	HIV Env fusion	eIF4H inh	Yeast UUG start	MT1-MMP act inh	MT1-MMP act inh RFP	others
O=C(NCCCN1CCCC1=O)C1CCN(S(=O)(=O)c2c(Cl)cccc2Cl)CC1	.	i	-15	3	.	.	-1	-2
CCCCC1CCC(C(=O)N(CC(C)C)c2c(N)n(CCCC)c(=O)[nH]c2=O)CC1 (configuration not stated)	.	i	30	-2	.	-13	-11	-1
COc1ccccc1-c1cc(NC=O)c2ncc(-c3cccc(C(C)=O)c3)n2c1	.	.	.	67*	.	-5	-8	-6
CC1(C(=O)Nc2ccc(Cl)cc2)Cc2c(-c3cccc(C(F)(F)F)c3)ccnc2O1 (configuration not stated)	.	.	.	-35	.	-6	3	-7
CCN1CCN(c2ccc(N3CCN(S(=O)(=O)c4cc([N+](=O)[O-])ccc4C)CC3)nn2)CC1	.	i	71	9	.	-3	-2	0
CC(CCc1ccccc1)NC(=S)NC1CCCCC1 (configuration not stated)	1	i	-1	-6	-4	.	-3	0
COCCNC(=O)CSc1nc2nn(-c3ccccc3)c(=O)c-2c2n1CCCCC2	2	i	7	-6	-8	-14	-2	0
Cc1ccc(S(=O)(=O)C2(C(=O)Nc3ccc(F)cc3)CC2)cc1	6	i	-16	.	9	-4	-1	0
CC(C)(C)c1ccc(C(=O)NCCOc2ccccc2)cc1	9	i	-1	-65	-2	-36	7	5
Cn1cc(C=C2C(=O)CC(C)(C)CC2=O)c2ccccc21	-9	i	-12	5	-21	.	1	2
COc1ccc(/C=c2/sc3n(c2=O)NC2(c4ccccc4)N(C)C(=O)N(C)C2(c2ccccc2)N=3)cc1 (configuration not stated)	-11	i	7	.	-5	.	-3	-9
COc1ccc(/C=C(\C#N)C(=O)N2COCC2(C)C)cc1	-11	i	-16	-9	7	.	3	0
O=C(c1ccc(-c2ccccc2)cc1)C1CCCN(Cc2ccncc2)C1 (configuration not stated)	19	i	34	6	4	-13	-17	-25
COC(=O)Cc1cc(=O)[nH]c(/N=C(\N)Nc2ccc(C)cc2C)n1	3	i	.	.	1	-10	1	1
COc1ccccc1OCCNC(=O)CNC(=O)c1ccc2c(c1)OCO2	.	i	-13	3	.	3	10	0
C[C@@H]1CN([C@@H](C)CO)C(=O)CCCn2cc(nn2)CO[C@H]1CN(C)S(=O)(=O)c1cn(C)cn1	.	.	.	-29	.	-11&-7	1	4
Cc1c(C)c2c(C)nn(-c3ccccc3)c2[nH]c1=O	-9	i	-9	-67	-8	-16	-3	2
O=C1/C(=C/c2ccccc2)SC(=S)N1CC(=O)N1CCCCC1c1cccnc1 (configuration not stated)	3	i	10	7	-3	-19	-5	-7
O=C(CCNC(=O)C1CCN(S(=O)(=O)c2ccc(F)cc2)CC1)Nc1nccs1	.	i	-6	-1	.	-28	7	4
CCn1c(C)c(Br)c(=O)c(C(=O)OC)c1-c1ccc(Cl)cc1	-2	i	-1	-10	-4	-2	2	5
N#CC1(NC(=O)CSc2nc3ccc([N+](=O)[O-])cc3s2)CCCCC1	.	i	-5	-27	.	.	-3	-8
CC(C)(C)NC(=O)/C(=C\c1ccco1)NC(=O)c1ccco1	13	i	2	17	4	-21	0	5
Cn1cc(CN2CCC(N3CCNC(=O)CC3)CC2)c(-c2ccccc2F)n1	-1	i	-11	-10	-2	-5	1	5
CC(C)c1onc(C(=O)NCc2ccccc2)c1[N+](=O)[O-]	-2	i	-3	-33	2	.	2	-2
O=C(NC1C/C(=N/O)c2cc3c(cc21)OCO3)C(F)(F)F (configuration not stated)	2	i	.	-18	-10	.	0	5

More entries
SMILES	PABP FP inh	Rce1 inh	CSC inhib	HIV Env fusion	eIF4H inh	Yeast UUG start	MT1-MMP act inh	MT1-MMP act inh RFP	others
COc1ccc(CNC(=O)CCC(=O)N2CCN(C(C)=O)CC2)cc1	8	i	-16	2	31	-20	-4	2
Cc1ccc2c(c1)N(C(=O)CCC(=O)NCc1cccnc1)CCO2	2	i	-10	3	-32	-12	6	6
O=C1COc2ccc(S(=O)(=O)N3CCC(C(=O)NCc4ccccc4)CC3)cc2N1	1	i	-14	6	-17	3	3	2
C=CCSc1nc2ccccc2n1C(=O)/C=C/c1cc(OC)c(OC)c(OC)c1	-14	i	.	.	-8	-16	-16	-27
COc1ccc(OC)c(NC(=O)CCN2CCN(c3ccccc3F)CC2)c1	-1	i	-6	-44	0	-1	-2	-1
CCOc1cc(NC(=O)c2ccco2)c(OCC)cc1NC(=O)c1ccco1	-8	i	.	-4	2	-12	2	2
COc1ccc(CCNC(=O)CCSc2nc(-c3ccco3)cc(C(F)(F)F)n2)cc1	-4	i	.	.	4	-10	.	.
Cc1cc(C)c2c(C)c(C(=O)NCc3ccc(S(N)(=O)=O)cc3)oc2c1	5	i	-21	-16	17	-10	-1	2
COC(=O)/C(=N/Nc1ccccc1)N1CCCc2ccccc21	91	i	9	.	-6	-7	-34	-31	eIF4H inh retest=-5;PABP FP inh retest=11
Cc1cc(NC(=O)COC(=O)c2ccc(Cl)cc2)no1	.	.	.	3	.	-13	-2	0
O=C(Cc1ccccc1)NC1c2ccccc2-c2ccccc21	-2	i	-4	-2	2	.	0	2
O=C(NC1CCCC1)c1cc2nc(-c3ccco3)cc(C(F)(F)F)n2n1	10	i	2	13	-10	-11	1	2
COc1cc(/C=C/C(=O)OCC(=O)N(C)C2CCS(=O)(=O)C2)ccc1OC(F)F (configuration not stated)	13	i	6	.	7	4	-2	-1
CN1C(=S)N(c2ccccc2)C(=O)/C1=C/c1ccco1	-2	i	3	-40	13	.	0	1
Cc1nc2cc(-c3ccccc3)ccc2o1	4	i	-2	-135	-4	-11	3	-3
O=Cc1cn(CC(=O)N2CCc3ccccc32)c2ccccc12	-5	i	-4	-4	4	-2	-8	-6
Cc1ccc(C(=O)NNC(=O)C2CCN(C(=O)OC(C)(C)C)CC2)cc1	-4	i	-1	9	-3	-4	3	4
Cc1onc(-c2ccccc2)c1NC(=O)OC(C)c1cccnc1 (configuration not stated)	.	.	.	-24	.	-15	-1	5
Cc1cccc2cc3c(N)c(C(=O)Nc4ccc(N5CCOCC5)cc4)sc3nc12	3	i	62	.	-2	-4	-147	-14
CCCNC(=O)COC(=O)c1ccccc1OCc1ccc(Cl)cc1	3	.	-5	-20	5	-7	-1	3
Cc1ccc(C(c2nnnn2C(C)(C)C)N2CCN(C3CCCC3)CC2)cc1 (configuration not stated)	-2	i	-6	.	-7	-5	-2	-2
COc1ccc(/C(C)=N/NC(=O)c2nnn(-c3nonc3N)c2-c2ccccc2)cc1	-19	i	.	-14	3	-6	1	1
O=C(Nc1cccnc1)c1cccc([N+](=O)[O-])c1	1	i	-9	-1	4	.	-1	-2
C=CCn1cnc2c(NCc3ccccc3)ncnc21	-8	i	-14	.	-4	-5	-1	-2
COc1ccc(N2CCN(C(=O)c3ccc4c(c3)NC(=O)C(CSCc3c(F)cccc3Cl)N4)CC2)cc1 (configuration not stated)	4	i	2	.	-5	.	.	.

The listing continues.
SMILES	PABP FP inh	Rce1 inh	CSC inhib	HIV Env fusion	eIF4H inh	Yeast UUG start	MT1-MMP act inh	MT1-MMP act inh RFP	others
Cc1ccc(C(=O)N2CCN(c3ncccn3)CC2)o1	7	i	-6	.	-14	-2	-3	3
CCOc1ccc(N2Cc3ccccc3C2)cc1	20	i	10	.	2	-13	-4	2
O=C(c1ccc(-c2nc3ccccc3s2)o1)N1CCN(c2ccccc2O)CC1	-1	i	.	-13	-7	-10	-1	-1
COc1cccc(-c2nc(-c3cccs3)no2)c1	1	i	-14	-366	6	.	-1	-4
CCOc1ccc(-c2nnn(CC(=O)N3CCCC(C)C3)n2)cc1 (configuration not stated)	4	i	-6	-8	5	.	-2	-6
Cc1nc(N2CCc3ccccc3C2)[nH]c(=O)c1Cc1ccccc1	3	i	1	6	4	.	5	3
COc1ccc2cc(C(=O)N/N=C/c3sc4ccccc4c3O)ccc2c1	4	i	147*	?	?	.	-59	16
COc1ccc2c(C=O)c[nH]c2c1	-5	i	.	10	7	.	-2	6
Cc1ccc(NC(=O)C2=C(O)c3sccc3N(C)S2(=O)=O)cc1	2	i	6	-38	-14	-16	-2	-1
COc1ccc(CNC(=O)CNC(=O)[C@@H]2Cc3ccccc3CN2)cc1	-8	i	-13	-13	6	-4	0	2
Nc1ncc2c(n1)CC(c1ccco1)CC2=O (configuration not stated)	16	i	.	.	8	-6	-9	-2
CCCc1nnc(NC(=O)Cn2cnc3ccccc3c2=O)s1	5	i	-32	-17	-4	-9	3	2
O=C(COC(=O)c1ccc[nH]c1=O)NC1CCCCCCC1	-20	i	.	-5	5	.	1	5
OC(c1ccc(Cl)c(Cl)c1)c1ncc(-c2ccc(Cl)cc2)[nH]1 (configuration not stated)	.	.	.	5	.	-8	9	2
COc1ccc(-c2c(C(F)(F)F)nn(C)c2NC(=O)c2ccco2)cc1	1	i	-5	0	-2	.	3	3
COc1ccc(C(C#N)=Cc2ccc(OC)c(OC)c2)cc1	.	.	.	-29	.	-10	-3	-4
COc1ccc(/C=C2\N=C3CCCCCN3C2=O)cc1	9	i	-20	-3	6	-13	0	3
C/C(=N\NC(=O)CNc1cccc2ccccc12)c1ccccc1	-3	i	-1	15	106	.	4	2	eIF4H inh retest=-9;PABP FP inh retest=4
CC(C)(C)OC(=O)C[C@H]1C/C=C\C[C@@H](CC(=O)N[C@H](CO)Cc2ccccc2)C(=O)N2CCC[C@H]2COC1=O	.	.	.	-5	.	56	5	4
Cc1ccccc1NC(=O)CCC(=O)N/N=C/c1ccncc1	.	i	-14	-4	.	-24	3	1
Cc1cc(C)nc(-n2ncc3c2CCCC3=O)n1	-3	i	-9	-25	-13	.	-3	3
C#CCOCCOCCOCCNc1nc(N2CCN(C(=O)Cn3cc(CCO)nn3)CC2)nc(N2CCN(C(=O)[C@H]([C@@H](C)O)n3cc(CCCCN)nn3)CC2)n1	-7	i	-6	25	-12	-8	3	8
Cc1csc(-c2cc(C(=O)NCc3ccc(F)cc3)n[nH]2)c1	.	.	.	-26	.	-19	1	3
COCCCN1C(=O)C(=O)/C(=C(/O)c2ccc(S(=O)(=O)N3CCCCC3)cc2)C1c1ccc(F)cc1 (configuration not stated)	5	i	-1	5	5	-15	.	.
CCOC(=O)c1oc2cccc(O)c2c1C	-5	i	4	-263	-11	-23	-5	-3
O=C(NCCN1CCOCC1)C1CC(=O)N(c2ccc(F)c(Cl)c2)C1 (configuration not stated)	-6	i	-10	13	-9	-13	2	6
O=C(Nc1cnn(Cc2ccc(F)cc2)c1)c1cnn2c(C(F)F)cc(-c3ccccc3)nc12	5	.	24	8	6	.	5	0
Cc1nnc(SCC(=O)NC2CCCCC2)s1	23	.	-11	-1	-4	.	-2	1
CCCCc1nnc(NC(=O)Cc2ccc(S(=O)(=O)N3CCOCC3)s2)s1	.	.	-10	.	.	-13	-14	-1
